RE007 growth inh – qHTS Assay for Inhibitors of the HIV-1 protein Vpr; S. pombe RE007 Vpr strain, BacTiter-Glo ATP luminescence, 24 h; control for the full effect not named in the record; Potency, µM (highest dose often 92.2 µM), for inactives: top-dose activity change, negative = less growth; hit rate 0.21% among 360,000; active = well fitted falling curve with a large enough effect; inconclusive = small, poorly fitted or top-dose-only effect; inactive = no such curve, though single readings can be large or run the other way;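 further: on the % scale 0 is the no-effect control and ±100 the full control effect; nearly all actives have a fitted effect of over 50% in size; the assay follows cell death caused by Vpr and the record does not say whether a fall means rescue or toxicity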
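Fission yeast RE007 carrying one integrated HIV-1 vpr copy, seeded at OD 0.01 in PMG+AL medium with 23 nL pinned compound. Grown 24 h at 30 degrees; viability read by BacTiter-Glo luminescence after 5 min.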
2A StopGo – High Throughput Screening for Foot and Mouth Disease Virus Antivirals; human cells with a luciferase reporter of 2A StopGo recoding; control for the full effect not named in the record; Potency, µM (series often up to 57.9 µM), for inactives: top-dose signal change, negative = less light; hit rate 1.2% among 410,000; AID 1159524, 2015; active = well fitted falling curve with a large enough effect; inconclusive = small, poorly fitted or top-dose-only effect; inactive = no such curve, though single readings can be large or run the other way; tested in HEK293T cells; further: on the % scale 0 is the no-effect control and ±100 the full control effect; nearly all actives have a fitted effect of over 45% in size; luciferase light after 4 h
NS1 inh – qHTS Assay for Inhibitors of Influenza NS1 Protein Function; S. cerevisiae slowed by influenza A NS1, growth recovery by OD600; Potency, µM (series often up to 46.1 µM), for inactives: at the top dose activity, positive = more growth; hit rate 0.4% among 270,000; active means well fitted rising curve with a large enough effect; inconclusive means small, poorly fitted or top-dose-only effect; inactive means no such curve, though single readings can be large or run the other way; further: nearly all actives have a fitted effect of over 50% in size
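Growth recovery, yeast-based: influenza A NS1 expressed in S. cerevisiae causes slow growth, and suppressors are detected by OD600. The parent strain without NS1 is used as positive control.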
MARV entry inh – qHTS for inhibitors of binding or entry into cells for Marburg Virus | Marburg virus pseudotyped entry inhibition, cell reporter; control for the full effect not named in the record; about a third of the inactives were read at about 46 µM | Potency, µM (series often up to 37.8 µM), without a hit: at the highest dose activity change, negative = inhibition, most hits filed as inhibitors | hit rate 1.8% among 300,000; active = well fitted inhibition curve with a large enough effect; inconclusive = small, poorly fitted or top-dose-only effect, or effect the other way; inactive = flat fitted curve, though single readings scatter; tested in HEK293 cells; about a fifth of its hits are not listed in these tables; further: on the % scale 0 is the no-effect control and ±100 the full control effect; luciferase read-out
Cruzain noTriton – qHTS Assay for Promiscuous and Specific Inhibitors of Cruzain (without detergent); purified cruzain, Z-FR-AMC fluorescence, no detergent; Potency, µM, for the others: max response, negative = inhibition, hits mostly inhibitors; hit rate 2.3% among 200,000;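 further: plate controls were enzyme without inhibitor for no effect and buffer without enzyme for full effect; nearly all actives have a fitted effect of over 40% in size; top concentration of the series not given in the record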
Target sequence (P25779 123-467 limits assumed): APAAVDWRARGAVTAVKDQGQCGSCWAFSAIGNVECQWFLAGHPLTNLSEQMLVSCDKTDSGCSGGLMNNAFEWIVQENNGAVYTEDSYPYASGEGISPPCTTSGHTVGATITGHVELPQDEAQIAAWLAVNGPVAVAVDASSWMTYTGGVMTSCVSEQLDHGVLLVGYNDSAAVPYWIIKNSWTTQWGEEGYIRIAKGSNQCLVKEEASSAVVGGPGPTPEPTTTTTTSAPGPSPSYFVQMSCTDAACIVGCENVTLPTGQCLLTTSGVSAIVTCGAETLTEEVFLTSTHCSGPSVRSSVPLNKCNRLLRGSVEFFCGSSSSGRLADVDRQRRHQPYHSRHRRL
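Purified cruzain at 1.5 nM, pre-incubated 15 min with compound at room temperature in 100 mM sodium acetate pH 5.5, 5 mM DTT, 0.00005% Triton X-100. Reaction started with 2 uM Z-FR-AMC; AMC fluorescence increase over 60 s gives rate.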
Cruzain inh Det – qHTS Assay for Promiscuous and Specific Inhibitors of Cruzain (with detergent); Cruzipain (Trypanosoma cruzi), P25779; purified cruzain, Z-FR-AMC fluorescence, 0.01% Triton; Potency, µM, inactives show max response, negative = inhibition, actives largely listed as inhibitors; hit rate 0.43% among 200,000;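 further: plate controls were neutral wells for no effect and buffer without enzyme for full effect; nearly all actives have a fitted effect of over 40% in size; top concentration of the series not given in the record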
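Cruzain (1.5 nM) preincubated 15 min at RT with compound in 100 mM sodium acetate pH 5.5, 5 mM DTT, 0.01% Triton X-100. Reaction started with 2 uM Z-FR-AMC; AMC fluorescence (ex 360/em 450 nm) change over 60 s gave rate.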
Lassa entry inh – qHTS for Inhibitors of binding or entry into cells for Lassa Virus. Lassa virus pseudotype entry inhibition, cell reporter; control for the full effect not named in the record. Potency, µM (series often up to 37.9 µM), without a hit: at the top dose activity change, negative = inhibition, actives largely listed as inhibitors. hit rate 1.2% among 300,000; active means well fitted inhibition curve with a large enough effect; inconclusive means small, poorly fitted or top-dose-only effect, or effect the other way; inactive means flat fitted curve, though single readings scatter; tested in HEK293 cells; further: on the % scale 0 is the no-effect control and ±100 the full control effect; nearly all actives have a fitted effect of over 50% in size; luciferase read-out
SARS PLpro yeast – qHTS of Yeast-based Assay for SARS-CoV PLP; S. cerevisiae expressing SARS-CoV PLpro, growth rescue; control for the full effect not named in the record; Potency, µM (series often up to 32.9 µM), for inactives: at the highest dose activity, positive = growth rescue; hit rate 0.19% among 330,000; AID 485353, 2010; active means well fitted rising curve with a large enough effect; inconclusive means small, poorly fitted or top-dose-only effect; inactive means no such curve, though single readings can be large or run the other way; further: 0% is about no effect; nearly all actives have a fitted effect of over 55% in size; growth read by luminescence after 48 h
Active calls of the source: *; ? = inconclusive; . = not tested or not shown; [ ] = remark or other dose. Unless noted, the call rests on the fitted dose curve; in most records, active means well fitted curve in the direction sought with a large enough effect; inconclusive means small, poorly fitted or top-dose-only effect, or another doubt; inactive means no such curve, though single readings can be large; an effect the other way counts as inactive or inconclusive. Potency means the concentration at half of the fitted maximal effect.

SMILES,RE007 growth inh,2A StopGo,NS1 inh,MARV entry inh,Cruzain noTriton,Cruzain inh Det,Lassa entry inh,SARS PLpro yeast
CCCCC#Cc1nc(NC)c2ncn([C@@H]3O[C@@H](CO)[C@H](O)[C@H]3O)c2n1,.,-17%,.,9%,12%,0.4%,.,.
CCOc1ccccc1NC(=O)c1ccc(NC(=O)c2ccco2)cc1,-10%,?,-5%,?,-1%,-5.0%,-3%,-43%
CCOC(=O)c1cc(-c2ccccc2)sc1NC(=O)C(C)OC(=O)c1cccnc1Cl (stereo not drawn),-24%,-15%,-5%,?,-2%,-2.8%,-6%,-3%
Cc1ccc(NCc2nnc(SCC(=O)O)n2Cc2ccccc2)cc1Cl,24%,-12%,5%,8%[46.1 µM],.,.,?,0%
Cc1cc(C)c(C#N)c(Nc2ccc(F)cc2)n1,-17%,-1%,7%,.,.,.,.,1%
COc1ccc(CS(=O)(=O)c2nc(C)cc(C)c2S(C)(=O)=O)cc1,0%,4%,.,-22%[46.1 µM],.,.,12%[46.1 µM],3%
O=C(Nc1ccc(Cl)c(Cl)c1)N1CC=C(c2ccccc2)CC1,-23%,4%,-47%,-1%,32µM*,-2.5%,10%,-29%
CCOC(=O)c1ccc(NC(=O)CSc2ccc3ccccc3n2)cc1,.,-11%,.,.,20%,-4.0%,?,.
COc1ccc(NC(=O)c2c(OC)cccc2OC)c(OC)c1,-2%,-6%,-5%,25%,-7%,5.4%,8%,-2%
CC(C)N1CCN(C(=O)C2CCC(=O)N(CCc3cccc(F)c3)C2)CC1 (stereo not drawn),-22%,-5%,-2%,18%,.,.,0%,-8%
Cc1cc(=S)[nH]c2ccccc12,?,-14%,-5%,5%,0%,1.3%,4%,?
CCC(C)N(C(=O)COC(=O)/C=C/c1ccc(O)c(OC)c1)C1CCS(=O)(=O)C1 (stereo not drawn),12%,-13%,7%,?,-1%,-6.5%,11%,12%
O=C(CNCc1ccc(Cl)cc1)Nc1cccc(C(=O)O)c1,9%,11%,.,-10%[46.1 µM],.,.,14%[46.1 µM],-1%
O=C(Nc1cccc(F)c1)N(Cc1ccc(Cl)cc1)CC(O)C(F)(F)F (stereo not drawn),5%,-29%,-54%,?,7%,-4.4%,?,-25%
Cc1cc(C)nc(SCc2cc(=O)c(OC(=O)c3ccco3)co2)n1,-6%,10%,6%,.,?,25µM*,.,-6%
CN(C)c1ccc(C=C2C(=O)NC(=O)NC2=O)cc1,6%,-10%,.,3%[46.1 µM],.,.,-25%[46.1 µM],.
O=[N+]([O-])c1ccc(NS(=O)(=O)N2CCOCC2)cc1,12%,-1%,.,?,.,.,?,-3%
COc1ccc2nc(C)c(C(N)=O)cc2c1,11%,-4%,-1%,?,.,.,2%,0%
CC(=O)Nc1sc(N/N=C\c2cccc(Cl)c2)nc1-c1cccs1,-22%,3%,6%,?,?,-24%,-5%,14%
CC(C)CCNC(=O)c1ccc2nc(CCc3ccccc3)oc2c1,.,2%,.,.,-10%,0.4%,3%[46.1 µM],.
O=C(O)c1cc2c(s1)-c1ccccc1OC2,1%,7%,-192%,?,25µM*,?,9%,2%
CCOc1ccc(S(=O)(=O)NCc2ccc3c(c2)OCO3)cc1C(=O)O,7%,-10%,4%,.,.,.,.,0%
CC1(C)CC(=O)C(Sc2ccccc2C(=O)O)=C(O)C1,1%,-8%,0%,?,4%,-0.6%,-1%,14%
CCS(=O)(=O)c1nc(S(=O)(=O)c2ccc(C)cc2)c(NCCN2CCOCC2)s1,-8%,11%,3%,.,.,.,.,-2%
CCCCCc1ccc(C(=O)CCC(=O)OCC(=O)N(CC)c2c(N)n(Cc3ccccc3)c(=O)[nH]c2=O)cc1,2%,-13%,.,-18%,.,.,-2%,-5%
CC(=O)N1CCOc2cc(S(=O)(=O)Nc3cccc(C(F)(F)F)c3)c(Cl)cc21,.,46%[activator],.,.,10%,-0.2%,17%[46.1 µM],-1%
COc1ccc(Cl)cc1C(=O)OCC(=O)NC(=O)c1cccn1C,-9%,25%,-77%,0%,-8%,2.6%,-2%,6%
O=C(Nc1cc(F)c(Br)cc1F)c1ccc(Cl)cc1,-20%,23%,2%,-20%[46.1 µM],.,.,?,-1%
Cc1ccc(C(=O)O)c(NC=O)c1OCc1ccccc1,-2%,-9%,.,-16%[46.1 µM],.,.,-1%[46.1 µM],.
CC1=C(C(N)=O)C(c2ccc(F)cc2)n2nc(-c3ccc(N(C)C)cc3)nc2N1 (stereo not drawn),.,-3%,.,1%[46.1 µM],14%,-7.5%,-2%[46.1 µM],.
CN(C)S(=O)(=O)c1ccc(N2CCCC2)c(C(=O)Nc2ccc(F)cc2F)c1,2%,-16%,.,-9%,.,.,3%[46.1 µM],1%
COc1ccc(C(=O)C2CCCN(C(=O)c3ccoc3C)C2)cc1F (stereo not drawn),7%,-8%,6%,20%[46.1 µM],.,.,9%,0%
O=C(Nc1ccc(Br)cc1)c1cc(S(=O)(=O)N2CCc3ccccc32)ccc1F,.,0%,.,.,-14%,1.4%,-16%[46.1 µM],.
CN(C)S(=O)(=O)c1cccc(C(=O)OCC(=O)Nc2sccc2C(N)=O)c1,-8%,14µM*,-1%,?,7%,-4.5%,-6%,5%
Cc1ccc(NC(=O)c2c(C(F)(F)F)nn(C)c2SCc2cccc(C(F)(F)F)c2)cc1C,7%,-27%,7%,?,14%,-8.3%,?,-8%
COC(=O)c1ccc2ccn(CC(=O)NC3CCCCC3)c2c1,13%,-1%,-2%,?,?,3.4%,-13%,0%
COc1cccc(CN(C)C(=O)c2ccc(S(=O)(=O)N3CCCC3)cc2)c1OC,17%,-11%,-3%,-4%,19%,-1.9%,0%,-6%
c1ccc(-c2ncnc3nc4n(c23)CCC4)cc1,-2%,38%[activator],2%,-5%,-5%,-1.9%,0%,.
Oc1cc(Cc2ccccc2)cnc1CN1CCCCC1,-8%,-9%,-8%,?,13%,5.7%,7%,-1%
C/C(=N\Nc1cccc2cccnc12)c1ccc[nH]1,-9%,0%,.,?,.,.,?,0%
Cc1cc(C)cc(OCc2cc(=O)n3c(-c4ccccc4)csc3n2)c1,.,0%,.,-1%[46.1 µM],3%,-3.8%,4%[46.1 µM],.
Cc1nccn1-c1ccc(C(F)(F)F)cc1[N+](=O)[O-],5%,-8%,.,-2%[46.1 µM],.,.,-2%,0%
CCC(=O)N1CCCc2cc(S(=O)(=O)N3CCN(C4CCCCC4)CC3)ccc21,-9%,-27%,-2%,-19%,-9%,1.0%,?,0%
O=C(NN=C1CCCC1)c1n[nH]c2c1CCC2,2%,52%[activator],-1%,0%[46.1 µM],.,.,-27%,-1%
COc1ccc(NC(=O)CN2CC=C(c3ccccc3)CC2)cc1S(=O)(=O)N1CCOCC1,-14%,-9%,.,-25%[46.1 µM],.,.,-12%,-1%
Cc1cccc(NC(=O)N2CCC(NC(=O)c3ccccc3C)CC2)c1,6%,-10%,0%,10%,-6%,-1.4%,-10%,4%
CCSc1nnc(NC(=O)Cc2cc(OC)c(OC)c(OC)c2)s1,15%,-10%,.,-10%[46.1 µM],.,.,-22%,-1%
CC1CCCC2(C1)NC(=S)N(c1ccccc1)N2 (stereo not drawn),164%,2%,-15%,-1%,14%,4.0%,1%,-18%
O=C(CC1C(=O)NCCN1CC(c1ccccc1)c1ccccc1)NCC1CCOCC1 (stereo not drawn),0%,-2%,11%,2%,.,.,7%,-10%
CN(CC(=O)Nc1cccc(F)c1)C(=O)/C=C/c1cc(Br)ccc1OC(F)F,-2%,-11%,.,?,.,.,1%[46.1 µM],-2%
N#CCC(=O)Nc1ccc(C(=O)OCC(=O)N2CCN(C(=O)c3ccco3)CC2)cc1,-3%,-16%,.,11%,.,.,?,7%
COc1ccc(-c2nc(C)ncc2-c2ccc(Cl)cc2)c(O)c1,4%,-9%,-5%,.,.,.,.,3%
Cc1c(Cl)cccc1NC(=S)N1CCN(S(=O)(=O)c2cccs2)CC1,18%,-16%,.,-20%,.,.,-21%,-1%
Cc1ccc2oc(=O)c3cnn(CC(=O)Nc4cc(-c5cccc(F)c5)no4)c3c2c1,9%,-21%,-12%,9%,-3%,-1.4%,15%,-5%
COc1ccc(CCNC(=O)CCCn2nc(C)c3sc4ccccc4c3c2=O)cc1OC,.,-26%,.,?,-10%,-10%,-27%[46.1 µM],.
CCOc1ccc(NC(=O)CNS(=O)(=O)c2ccc(Br)s2)cc1,.,4%,.,7%[46.1 µM],-2%,-4.0%,-1%[46.1 µM],.
CCOC(=O)NC(=O)COC(=O)c1ccc(Sc2ncn[nH]2)c([N+](=O)[O-])c1,-13%,-3%,.,?,.,.,-2%,1%
O=c1c(F)cn(C2CCCO2)c(=O)n1Cc1c(F)cccc1Cl (stereo not drawn),27%,0%,-1%,5%,3%,2.3%,?,-3%
Cc1cccc(NC(=O)C2CCCN2S(=O)(=O)c2ccc(Cl)cc2)n1 (stereo not drawn),6%,-24%,-12%,?,.,.,-1%,2%
O=C(COc1ccc(Cl)cc1Cl)NC(=O)c1ccccc1,0%,16%,16%,.,.,.,.,?
Cc1nc2cc(Cl)c(Cl)cc2nc1C,-20%,68%[activator],-15%,1%,-6%,3.3%,-5%,1%
O=C(c1ccc2c(=O)n3c(nc2c1)CCCCC3)N1CCN(c2ccc(F)cc2)CC1,2%,1%,-1%,-18%[46.1 µM],.,.,-8%,0%
O=C(Oc1cccc(Br)c1)c1cccnc1,-23%,-15%,-2%,12%,-3%,2.7%,5%,4%
